HNF4A DNA FP – change in binding of human HNF4 alpha to DNA; P41235; HNF4a-FITC DNA binding, fluorescence polarization, 1 h; activity change, % at 10 µM; 360,000 compounds, 0.3% hits; AID 1224865; in the data active means activity change above about 30%, passing the limit was not always enough;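 further: controls were the assay level and a saturating level of protein; the project sought stronger binding though the title names inhibitors; some compounds called inactive have numbers as strong as hits; positive values seem to mean higher polarization but the record does not say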
Target sequence (P41235 whole entry, looked up): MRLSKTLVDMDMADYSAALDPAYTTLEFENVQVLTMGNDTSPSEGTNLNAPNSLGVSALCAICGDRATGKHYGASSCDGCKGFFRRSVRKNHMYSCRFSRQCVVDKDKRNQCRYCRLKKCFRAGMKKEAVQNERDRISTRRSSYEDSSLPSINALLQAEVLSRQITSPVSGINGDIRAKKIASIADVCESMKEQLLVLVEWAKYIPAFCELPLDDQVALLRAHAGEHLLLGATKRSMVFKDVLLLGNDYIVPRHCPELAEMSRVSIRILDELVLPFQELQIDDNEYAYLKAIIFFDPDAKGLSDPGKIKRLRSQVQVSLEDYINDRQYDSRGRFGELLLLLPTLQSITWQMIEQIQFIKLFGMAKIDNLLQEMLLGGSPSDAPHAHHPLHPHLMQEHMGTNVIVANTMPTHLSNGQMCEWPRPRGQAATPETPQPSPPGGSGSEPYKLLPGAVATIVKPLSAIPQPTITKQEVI
Ecoli growth – inhibitors of Escherichia coli growth | OD600 absorbance (no concentration beside the values) | OD600, 23 h; active compounds read low | 330,000 compounds, 0.21% hits;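 active means OD600 absorbance below the run mean of sample wells minus 3.6 SD, in any replicate, cut at about 0.56 in these data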;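 further: stock transfer was 300 nL into about 60 µL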
UCH37 DUB inh – human UCH37 deubiquitinating enzyme inhibition. Q9Y5K5. purified proteasome/UCH37, Ub-AMC cleavage fluorescence. inhibition, % (no concentration beside the values). 330,000 compounds, 0.33% hits. AID 588478;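 active means mean of two replicates above 20%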;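 further: 0% = compound-free wells with enzyme and 100% = wells lacking proteasome; stock transfer was 100 nL into about 20 µL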
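Material: human UCH37 enzyme supplied as purified proteasome complex. Measure: % inhibition of Ub-AMC cleavage fluorescence. Medium: pH 7.4 Tris-HCl (50 mM) with ovalbumin, ATP-MgCl2, DTT. Times: 30 min preincubation with enzyme, 25 min cleavage at room temperature. Detection: AMC fluorescence intensity at 355/460 nm.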
LANA-H2A inh – blocks KSHV LANA binding to histone H2A/H2B; 320,000 compounds, 0.6% hits; cell-free LANA-H2A/H2B peptide, fluorescence polarization; inhibition, % (concentration not given with the values); AID 2629; Q9QR71; in the data active means inhibition mostly above about 10%, no sharp cut-off; inactive means mostly below about 6.7%;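 further: stock transfer was 7.5 nL into about 10 µL; 0% = median of vehicle wells and 100% = median of positive control wells; one replicate is shown; the record names a cut of 25% in any replicate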
B2AR ag – activates human beta-2 adrenergic receptor causing internalization; P07550; Am2.2-beta2AR cells, FAP receptor internalization, flow cytometry; reference of the scale not given here; response, % (test concentration not listed); 340,000 compounds, 0.43% hits; AID 504454;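 active means response above a set limit, near 3 SD of response in nonfluorescent compounds, cut at about 42% in these data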;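 further: stock transfer was 100 nL into about 11 µL; a reference agonist was the positive control; negative values mostly stem from fluorescent compounds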
Target sequence (P07550 whole entry, looked up): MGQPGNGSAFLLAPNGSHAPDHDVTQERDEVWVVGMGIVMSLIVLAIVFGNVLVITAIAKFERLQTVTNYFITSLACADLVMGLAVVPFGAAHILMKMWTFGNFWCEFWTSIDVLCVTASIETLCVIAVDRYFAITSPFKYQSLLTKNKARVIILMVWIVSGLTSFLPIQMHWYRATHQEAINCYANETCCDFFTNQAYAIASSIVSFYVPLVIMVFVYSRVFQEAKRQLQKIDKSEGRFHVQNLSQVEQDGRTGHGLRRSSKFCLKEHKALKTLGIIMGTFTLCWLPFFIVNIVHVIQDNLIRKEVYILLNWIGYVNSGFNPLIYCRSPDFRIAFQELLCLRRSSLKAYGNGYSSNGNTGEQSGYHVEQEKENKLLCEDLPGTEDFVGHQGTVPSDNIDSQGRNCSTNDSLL
Bfl-1 A1 inh – inhibitors of the anti-apoptotic protein A1, read as caspase activation. MEF A1-2A-BIM cells, Caspase-Glo 3/7 luminescence, 3 h; percent of clofoctol response, vehicle zero. caspase activation, % (concentration not given with the values). 330,000 compounds, 0.066% hits;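 active means over half of replicate activation scores above 10%, or exactly half above 10 with the replicate mean above 10; inconclusive means replicate mean below 10 yet half the replicates above 10; inactive means over half of replicates below 10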;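 further: wells of about 30 µL received 50 nL stock; many hits fall short of the cut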
Vif A3G – inhibitors of Vif binding to APOBEC3G peptide, primary screen, biochemical, TR-FRET, GST-Vif 1-94, biotin-A3G peptide, dose response retest (AID 1117319) | TR-FRET GST-Vif / biotin-A3G peptide binding; higher % means a stronger effect; test concentration not given here; strong numbers were not always called active | one-dose inhibition, %; IC50 in µM for titrated hits | 260,000 compounds, 0.57% hits;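 active means above the screen mean plus three standard deviations and confirmed in dose response; inconclusive means results disagree or hit not tested in dose response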;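 further: Vif residues 1-94 fused to GST binding biotinylated APOBEC3G peptide 110-148; 0% = full assay without inhibitor and 100% = GST in place of GST-Vif; retest series ran down from 100 µM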
* hit, by the source's call; u = inconclusive; x = not tested or not shown; & = joins results of further samples.

SMILES	HNF4A DNA FP	Ecoli growth	UCH37 DUB inh	LANA-H2A inh	B2AR ag	Bfl-1 A1 inh	Vif A3G
O=C(Nc1ccc(S(=O)(=O)NC2=NCCCCC2)cc1)c1ccc2ccccc2n1	-2.2	0.75	5.5	4.6	9	0.6	-3%
CN(CC(=O)Nc1ccccc1C(F)(F)F)C(=O)c1ccc(-c2ccc(Cl)cc2)o1	-1.1	0.7	0.6	-4.2	-3	2.6	-9%
Oc1ccc(/C=N/Nc2nc(-c3ccc(Cl)cc3)cc(C(F)(F)F)n2)cc1	0.7	x	x	2.5	24	0.6	x
O=C(CSC1=NCCS1)Nc1nc(-c2ccccc2)cs1	3.5	0.65	1.7	-2.4	-3	-0.6	11%
Cc1cccc(C2C3=C(CCCC3=O)N=C3c4ccccc4C(=O)C32)c1 (stereo unspecified)	-2.6	0.72	0.8	0.0	0	-4.0	6%
COc1ccccc1NC(=O)CCc1nc2sc3c(c2c(=O)[nH]1)CCCC3	14	0.65	-3.9	3.6	0	0.7	-12%
COc1ccc(NC(=O)CSc2nnc(CNC(=O)c3cccs3)o2)c(OC)c1	-0.9	0.7	-0.8	-1.0	1	-0.7	-6%
Cc1ccc(-c2n[nH]c(=O)c3ccccc23)cc1S(=O)(=O)N(C)CCO	-0.3	0.69	1.9	0.1	-9	-1.0	u
C/C(NCCCn1ccnc1)=C(\C#N)C(N)=O	-1.5	0.69	-0.6	3.6	3	-0.3	1%
Cc1ccc(S(=O)(=O)Nc2ccc3c(c2)OCCO3)cc1C	2.8	0.7	1.5	5.6	14	-0.3	x
Cc1nnc(NC(=O)CSc2nc3ccccc3[nH]2)s1	-0.4	0.68	3.0	-0.6	-12	-0.5	12%
CCN1CCN(C(=O)Cn2cnc3sc(C)c(S(=O)(=O)N4CCN(c5ncccn5)CC4)c3c2=O)CC1	5.7	0.7	-1.8	3.9	-12	1.8	7%
Cc1cc(=O)n(C(C)Cc2ccccc2)n1C(C)Cc1ccccc1 (stereo unspecified)	1.5	x	x	x	-1	x	-3%
COc1ccc(COC(=O)CCc2c[nH]c3ccccc23)cc1F	-1.3	0.7	2.5	0.5	1	0.4	1%
O=c1o[nH]c(-c2ccccc2)c1C1=NCCCCC1	-0.9	0.67	1.2	-0.7	-9	0.9	-5%
Cc1nnc(NC(=O)CSc2ccc(-c3cccnc3)nn2)s1	-0.2	0.66	4.7	7.9	1	-0.1	-1%
Cc1ccc(NC(=O)CSc2nnc(-c3ccco3)o2)cc1	0.8	0.68	4.9	-0.7	-3	-0.6	6%
Cc1ccc(CCN2C(Nc3ccccc3)=NC[C@@H]2C)cc1	1.6	0.8	0.7	2.5	1	0.3	x
CCN(CC)S(=O)(=O)c1cccc(-c2nnc(SCCCC(=O)c3ccc(F)cc3)o2)c1	-3.0	0.73	-1.1	-3.9	-8	0.6	-2%
O=C(C1CCCN(S(=O)(=O)c2ccc(Cl)cc2)C1)N(Cc1cccs1)C1CC1 (stereo unspecified)	-2.7	0.73	4.1	-2.1	-1	0.1	9%
Cc1cccc(NC(=O)CN(C)CC(=O)NC(c2ccccc2)c2ccccc2)c1C	-2.4	0.65	3.9	-1.5	-6	0.1	3%
Cc1cccc(OCC(=O)NC2CC(C)(C)NC(C)(C)C2)c1	-7.3	0.69	0.2	1.7	16	0.3	x
CCN1C(=O)[C@H]2[C@H]3[C@H](O)[C@H](O)C/C(=N\O[C@H](C)c4cn([C@H](CO)Cc5ccccc5)nn4)[C@@H]3CC[C@H]2C1=O	x	x	x	-0.6	x	-0.5	32%
Cc1cc(NC(=O)C2CC(c3c(F)cccc3Cl)=NO2)n(-c2ccccc2)n1 (stereo unspecified)	2.6	0.63	2.3	-3.4	-5	0.5	-10%
CCN(C(=O)CN1CCN(c2ccccc2O)CC1)c1c(N)n(Cc2ccccc2)c(=O)[nH]c1=O	-1.8	0.78	3.8	-3.7	0	-0.9	u
New compounds follow.
SMILES	HNF4A DNA FP	Ecoli growth	UCH37 DUB inh	LANA-H2A inh	B2AR ag	Bfl-1 A1 inh	Vif A3G
COc1ccc(C(=O)NC2CC3CCCC(C2)N3Cc2ccccc2)cc1 (stereo unspecified)	-8.2	0.68	5.1	-0.2	-1	-0.5	x
CSc1ccc(CN2CCc3c([nH]c4ccccc34)C2)cc1	1.7	0.6	3.0	-2.8	-4	0.3	-8%
O=C(NC1CCCC1)C(c1ccncc1)N(C(=O)c1csnn1)c1ccc(Cl)cc1 (stereo unspecified)	1.2	0.67	4.4	2.6	0	-0.1	-1%
CCc1nccn1CCC(=O)NC1CC(C)(C)Cc2c1cnn2-c1ccc(C)cc1 (stereo unspecified)	1.1	0.71	2.9	1.6	-10	-0.8	-7%
Cc1ccccc1C(=O)NC1CC2CCC(C1)N2Cc1ccccc1 (stereo unspecified)	2.3	0.7	1.7	5.1	-4	-1.0	-5%
O=C(CCc1ccccc1Cl)Nc1ccc(S(=O)(=O)Nc2nccs2)cc1	1.5	0.61	0.1	x	9	x	9%
CCN(CC)CCN=C1CCCc2ccccc2N1	-3.2	0.79	-0.4	-1.8	1	0.1	1%
NC(=O)C1CCN(C(=O)Cn2cccc2C(=O)c2ccccc2)CC1	2.8	0.69	2.7	0.5	-2	0.1	3%
Cc1cccc(C)c1NC(=O)CSc1nnc([C@H](C)NC(=O)OC(C)(C)C)o1	0.1	0.71	2.0	3.3	2	0.9	2%
O=C(NCCc1ccccc1)C1CCC(Cn2c(=O)c3ccccc3n(Cc3cccc(F)c3)c2=O)CC1 (stereo unspecified)	1.1	0.68	2.8	7.8	9	0.1	-6%
COc1ccc(C2C3=C(N=C4SCC(=O)N42)c2ccccc2CC3)cc1 (stereo unspecified)	0.3	0.79	-4.0	2.5	1	0.2	10%
CC(NC(=O)c1ccc(NS(C)(=O)=O)cc1)c1ccccc1 (stereo unspecified)	-1.3	0.67	4.6	-2.6	-1	0.8	2%
C/C(=N\NC1=NCCN1)c1ccc(Cl)cc1	2.0	x	x	1.0	6	1.2	x
O=C(OCC(=O)N1CCCCCC1)c1ccc(F)cc1F	0.9	0.7	2.1	x	-3	x	-8%
COCCNC(=O)NC(=O)COC(=O)Cc1ccc2c(c1)OCCO2	0.6	0.72	-0.6	6.0	-1	0.1	1%
Cn1c(C(F)(F)F)nc2c(=O)oc3ccccc3c21	-3.1	0.64	-1.3	0.4	-10	0.4	5%
CCCCCCCC(=O)NNC(=O)c1c(O)c2ccccc2n(CC)c1=O	0.5	0.72	4.2	-2.4	6	-0.7	15%
CCOC(=O)c1[nH]c(C)c(/C(O)=C2\C(=O)C(=O)N(CCCN3CCOCC3)C2c2cccnc2)c1C (stereo unspecified)	2.0	0.65	14	x	2	x	3%
O=C(Nc1ncc2c(n1)CC(c1cccc(Cl)c1)CC2=O)c1ccco1 (stereo unspecified)	0.7	0.66	0.5	4.6	43*	0.5	6%
COC(=O)c1cccc(N(C(=O)c2ccco2)C(C(=O)NC2CCCC2)c2ccco2)c1 (stereo unspecified)	0.4	0.81	1.2	-0.5	-3	0.4	x
O=C(c1ccc(N2CCCCC2)c([N+](=O)[O-])c1)N(c1ccccn1)c1ccccn1	-0.7	0.65	7.3	-1.1	-8	2.0	3%
Cc1c(NC(=O)C2CCCN(S(=O)(=O)c3cnc[nH]3)C2)c(=O)n(-c2ccccc2)n1C (stereo unspecified)	-1.5	0.76	4.1	-3.5	0	0.4	-5%
COc1ccc(CCNc2ccncn2)cc1	-2.2	0.7	5.5	6.1	0	-0.8	u
CCS(=O)(=O)N1CCC(C(=O)NC2CCCCCCC2)CC1	-1.5	0.68	4.9	0.6	0	-0.7	1%
C=CCn1c(COc2ccccc2)nnc1SCC(=O)N/N=C/c1cc(Cl)ccc1O	2.9	x	x	5.2	-6	-0.3	31%
The list goes on.
SMILES	HNF4A DNA FP	Ecoli growth	UCH37 DUB inh	LANA-H2A inh	B2AR ag	Bfl-1 A1 inh	Vif A3G
Cc1ccc(S(=O)(=O)CC(=O)Nc2ccc(F)c(F)c2F)cc1	3.9	0.68	4.5	5.2	-13	-0.3	x
COc1cc(OC)c(OC)cc1/C=N/NC(=O)c1cnccn1	1.4	x	x	8.0	11	0.0	4%
CCCC(=O)NC(Nc1ccc(S(=O)(=O)Nc2ncccn2)cc1)(C(=O)OCC)C(F)(F)F (stereo unspecified)	0.7	0.73	1.7	-0.2	4	0.2	-8%
CCCCn1c(N)c(N(CC(C)C)C(=O)CCC2CCCCC2)c(=O)[nH]c1=O	3.8	0.7	-0.3	0.8	8	-0.1	x
Cc1nc2ccc(NC(=O)/C=C/C(=O)O)cc2nc1C	8.8	0.67	-61	4.6	0	0.1	x
CCCCCC1CC(=O)N(Cc2ccccc2)C(=O)N1 (stereo unspecified)	2.1	0.71	1.1	1.7	-5	0.9	-5%
Cc1cccc(C(=O)N[C@H](C(=O)OCc2cc(=O)n3c(n2)sc2ccccc23)C(C)C)c1	-24	0.71	-0.6	-3.9	-17	0.1	x
CSc1ncccc1C(=O)N1CCN(S(=O)(=O)c2ccc(F)cc2)CC1	0.6	0.66	0.2	1.6	4	0.4	-1%
CC(C)OC(=O)CSc1nnc(-c2cccnc2)n1N	-1.3	0.66	1.6	1.2	-3	1.4	-2%
Cc1cc2ccccn2c1C(=O)c1cccc([N+](=O)[O-])c1	-12	0.74	4.2	3.4	-4	1.5	-3%
CC(C)(O)P(C)(=O)c1ccccc1 (stereo unspecified)	-2.6	0.69	-0.8	-4.1	5	0.2	3%
O=c1cnnc(N/N=C/c2ccc3c(c2)OCO3)[nH]1	0.7	x	x	3.1	8	-0.5	-2%
CC(=O)Nc1ccc(S(=O)(=O)Nc2nc3ccccc3nc2Cl)cc1	5.6	0.67	-0.6	0.4	-3	1.2	-9%
COc1cc([N+](=O)[O-])ccc1NC(=O)C[n+]1ccccc1C	-0.1	0.71	6.1	2.1	-2	1.5	3%
C=CCNC(=O)c1c(-c2c(F)cccc2Cl)noc1C	0.9	0.7	1.2	-6.5	3	1.6	-2%
Cc1nnc(NC(=O)C(C)Sc2nnc(-c3ccco3)n2C)s1 (stereo unspecified)	2.6	0.68	1.5	-2.6	-2	-0.1	-3%
CCN(CC)C(=O)n1nc(C)c(CN2C(=O)c3ccccc3C2=O)c1C	2.9	0.7	-0.3	1.4	-12	-0.6	-1%
CCOC(=O)c1cnn(CC2CCCCC2)c1N	0.4	0.71	2.9	7.4	-4	0.4	2%
CC(=O)Oc1ccc2c(=O)c(-c3ccccc3)c(C)oc2c1	2.8	0.71	-117	-4.3	-3	0.0	-1%
CCCCOc1ccc(C(=O)NCC(=O)NCC(c2ccco2)N2CCCCC2)cc1 (stereo unspecified)	1.2	0.69	2.0	-2.6	4	0.2	1%
CCOc1ccc2[nH]c(=O)c(C(c3nnnn3Cc3ccco3)N3CCC(C)CC3)cc2c1 (stereo unspecified)	11	0.8	-33	-6.8	5	-1.1	-5%&23%
CC1(c2ccc(OC(F)F)cc2)NC(=O)N(CC(=O)Nc2ccccc2)C1=O (stereo unspecified)	-0.7	0.7	4.4	-3.4	0	0.3	x
COc1ccc(OC)c(S(=O)(=O)NCC(c2ccco2)N2CCc3ccccc32)c1 (stereo unspecified)	4.0	0.61	0.9	-3.8	7	0.0	2%
CN(C)C(=O)Cn1c(=O)n(C)c2ccccc21	-36	0.71	-0.7	-2.2	4	0.5	-9%
Cc1cccc(N2Cc3ccccc3C2=NC(=O)c2ccc(Cl)nc2)c1	7.7	0.69	-2.9	1.4	-4	-3.1	5%
CCCCn1c(N)c(N(CCOC)C(=O)c2ccc(N3CCCC3)c([N+](=O)[O-])c2)c(=O)[nH]c1=O	0.3	0.71	3.7	1.2	23	0.4	7%

Assay outcomes from PubChem BioAssay.
